Compound activity as filed in PubChem.
RE007 growth inh: less growth of the S. pombe RE007 Vpr strain; S. pombe RE007 Vpr strain, BacTiter-Glo ATP luminescence, 24 h; control for the full effect not named in the record; AID 651644; actives 0.21% (n = 360,000); Potency, µM (highest dose often 92.2 µM), for inactives: top-dose activity change, negative = less growth; active = well fitted falling curve with a large enough effect; inconclusive = small, poorly fitted or top-dose-only effect; inactive = no such curve, though single readings can be large or run the other way;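 further: on the % scale 0 is the no-effect control and ±100 the full control effect; nearly all actives have a fitted effect of over 50% in size; the assay follows cell death caused by Vpr and the record does not say whether a fall means rescue or toxicity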
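Fission yeast strain RE007, carrying one chromosomally integrated HIV-1 vpr copy, was seeded at OD 0.01 in PMG+AL medium with 23 nL pinned compound. After 24 h at 30 °C and 99% humidity, viability was read by BacTiter-Glo luminescence.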
Cruzain inh noDet: cruzain (T. cruzi) inhibition without detergent. purified cruzain, Z-FR-AMC fluorescence, no detergent. Potency, µM, for the others: max response, negative = inhibition, most hits filed as inhibitors. actives 2.3% (n = 200,000). AID 1476; active means well fitted curve in the direction sought with a large enough effect; inconclusive means small, poorly fitted or top-dose-only effect, or another doubt; inactive means no such curve, though single readings can be large; an effect the other way counts as inactive or inconclusive;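 further: plate controls were enzyme without inhibitor for no effect and buffer without enzyme for full effect; nearly all actives have a fitted effect of over 40% in size; top concentration of the series not given in the record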
Target sequence (P25779 123-467 limits assumed): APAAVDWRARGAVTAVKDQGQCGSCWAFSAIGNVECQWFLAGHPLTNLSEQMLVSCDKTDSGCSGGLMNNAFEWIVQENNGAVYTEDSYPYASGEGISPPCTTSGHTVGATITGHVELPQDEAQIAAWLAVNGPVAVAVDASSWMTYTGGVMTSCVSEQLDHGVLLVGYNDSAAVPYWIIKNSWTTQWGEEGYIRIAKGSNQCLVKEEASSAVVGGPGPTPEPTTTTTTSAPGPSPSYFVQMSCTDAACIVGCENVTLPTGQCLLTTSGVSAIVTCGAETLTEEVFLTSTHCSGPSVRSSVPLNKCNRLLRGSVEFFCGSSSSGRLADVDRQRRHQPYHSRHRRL
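Purified cruzain at 1.5 nM, pre-incubated 15 min with compound at room temperature in 100 mM sodium acetate pH 5.5, 5 mM DTT, 0.00005% Triton X-100. Reaction started with 2 uM Z-FR-AMC; AMC fluorescence increase over 60 s gives rate.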
SARS PLpro yeast: blocks SARS-CoV papain-like protease in a yeast assay; S. cerevisiae expressing SARS-CoV PLpro, growth rescue; control for the full effect not named in the record; actives 0.19% (n = 330,000); Potency, µM (top dose mostly 32.9 µM), for inactives: top-dose activity, positive = growth rescue; further: 0% is about no effect; nearly all actives have a fitted effect of over 55% in size; growth read by luminescence after 48 h
Lassa entry inh: blocks Lassa virus binding to or entry into cells | Lassa virus pseudotype entry inhibition, cell reporter; control for the full effect not named in the record | Potency, µM (series often up to 37.9 µM), without a hit: at the top dose activity change, negative = inhibition, hits mostly inhibitors | actives 1.2% (n = 300,000); active means well fitted inhibition curve with a large enough effect; inconclusive means small, poorly fitted or top-dose-only effect, or effect the other way; inactive means flat fitted curve, though single readings scatter; tested in HEK293 cells; further: on the % scale 0 is the no-effect control and ±100 the full control effect; nearly all actives have a fitted effect of over 50% in size; luciferase read-out
Cruzain inh Det: blocks cruzain activity in presence of Triton detergent | Potency, µM, for inactives: max response, negative = inhibition, usual class: inhibitors | purified cruzain, Z-FR-AMC fluorescence, 0.01% Triton | actives 0.43% (n = 200,000); active means well fitted curve in the direction sought with a large enough effect; inconclusive means small, poorly fitted or top-dose-only effect, or another doubt; inactive means no such curve, though single readings can be large; an effect the other way counts as inactive or inconclusive;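 further: plate controls were neutral wells for no effect and buffer without enzyme for full effect; nearly all actives have a fitted effect of over 40% in size; top concentration of the series not given in the record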
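Purified cruzain (1.5 nM final) was preincubated with compounds for 15 min at room temperature in 100 mM sodium acetate pH 5.5, 5 mM DTT, 0.01% Triton X-100. Reaction started with 2 uM Z-FR-AMC; AMC fluorescence change over 60 s gave activity.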
2A StopGo: FMDV 2A StopGo reporter, luciferase signal; actives 1.2% (n = 410,000); AID 1159524; human cells with a luciferase reporter of 2A StopGo recoding; control for the full effect not named in the record; Potency, µM (titrated, usually from 57.9 µM), for inactives: at the highest dose signal change, negative = less light; active = well fitted falling curve with a large enough effect; inconclusive = small, poorly fitted or top-dose-only effect; inactive = no such curve, though single readings can be large or run the other way; tested in HEK293T cells; further: on the % scale 0 is the no-effect control and ±100 the full control effect; nearly all actives have a fitted effect of over 45% in size; luciferase light after 4 h
Marburg entry inh: blocks Marburg virus binding to or entry into cells | actives 1.8% (n = 300,000) | Marburg virus pseudotyped entry inhibition, cell reporter; control for the full effect not named in the record; about a third of the inactives were read at about 46 µM | Potency, µM (top dose mostly 37.8 µM), without a hit: top-dose activity change, negative = inhibition, most hits filed as inhibitors; active = well fitted inhibition curve with a large enough effect; inconclusive = small, poorly fitted or top-dose-only effect, or effect the other way; inactive = flat fitted curve, though single readings scatter; tested in HEK293 cells; about a fifth of its hits are not listed in these tables; further: on the % scale 0 is the no-effect control and ±100 the full control effect; luciferase read-out
NS1 inh: inhibitors of influenza NS1 protein function; S. cerevisiae slowed by influenza A NS1, growth recovery by OD600; Potency, µM (top dose mostly 46.1 µM), for the others: at the top dose activity, positive = more growth; actives 0.4% (n = 270,000); further: actives are rising curves; nearly all actives have a fitted effect of over 50% in size
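In this qHTS, NS1 from influenza A is expressed in budding yeast, where it slows growth. Cells are switched from glucose to 2% galactose medium (pH 6.0, -URA), treated with compound, and growth recovery is read at OD600.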
Starred values were filed as active, the others as inactive; u = inconclusive; x = no result given; & = joins results of further samples; [ ] = dose if it differs, or a comment. Unless noted, the call rests on the fitted dose curve; in most records, active means well fitted rising curve with a large enough effect; inconclusive means small, poorly fitted or top-dose-only effect; inactive means no such curve, though single readings can be large or run the other way. Potency means the concentration at half of the fitted maximal effect.

SMILES	RE007 growth inh	Cruzain inh noDet	SARS PLpro yeast	Lassa entry inh	Cruzain inh Det	2A StopGo	Marburg entry inh	NS1 inh
Cc1ccccc1C(=O)Oc1cc(N)n(S(C)(=O)=O)n1	-18%	x	-1%	-22%[46.1 µM]	x	-1%	-4%[46.1 µM]	-1%
COc1ccc(-c2nnc(NC(=O)c3ccc([N+](=O)[O-])o3)o2)c(OC)c1	-2%	x	-5%	8%	x	-27%	-14%	6%
O=S(=O)(c1ccc(-c2ccno2)s1)N1CCCCC1	13%	x	-5%	1%[46.1 µM]	x	-9%	-13%[46.1 µM]	-4%
O=S(=O)(c1ccccc1)N1N=C(c2ccccc2)CC1c1ccccc1F (stereo not drawn)	8%	x	-6%	x	x	-13%	x	-7%
O=C(c1cccc(S(=O)(=O)N2CCOCC2)c1)N1CCCC(C(F)(F)F)C1 (stereo not drawn)	-2%	x	1%	0%	x	-21%	u	x
COC(=O)c1nnn(-c2ccsc2C(=O)OC)c1C(=O)OC	-3%	x	2%	1%	x	6%	5%[46.1 µM]	x
O=C(Cc1ccc2c(c1)CCCC2)Nc1ccccc1Br	-14%	3%	4%	u	-2.2%	x	16%	-2%
CCCc1nc(SCC(=O)c2ccc(OC)cc2)c2ccccc2n1	-8%	x	-2%	-19%[46.1 µM]	x	u	u	x
O=C(CN1CCCc2ccccc21)NCc1ccccc1Cl	-20%	2%	1%	u	-11%	12%	-4%	-3%
O=C(c1ccco1)N1CCN(C(=O)c2cc3c(=O)oc4ccccc4c3s2)CC1	5%	-18%	1%	-2%	-0.6%	9%	15%	2%
O=C(OCN1C(=O)c2ccccc2C1=O)/C(=C\c1ccco1)NC(=O)c1ccccc1	17%	0.4µM*	7%	0%	0.32µM*	30%	-3%	8%
NN=C(c1ccccc1)c1ccccc1	3%	x	x	6%[46.1 µM]	x	-5%	-8%[46.1 µM]	x
Cc1cc2c(c(SCC(=O)NCc3ccccc3Cl)n1)C(=O)OC2	-15%	x	0%	8%[46.1 µM]	x	-4%	12%[46.1 µM]	x
CCCCc1nc2ccccc2c(NC(=O)CN(CC)CC)c1CCC	-4%	7%	3%	-12%	1.6%	-26%	u	1%
CN(CC1CCCN(CCc2cccc(C(F)(F)F)c2)C1)C(=O)c1ccc2nc[nH]c2c1 (stereo not drawn)	-1%	x	-1%	x	x	-25%	x	0%
CC12CCC(C(=O)Nc3ccc(SC(F)F)cc3)(CC1=O)C2(C)C (stereo not drawn)	10%	0%	-6%	8%	1.3%	x	-21%	-15%
O=C(COC(=O)C12CC3CC(CC(C3)C1)C2)Nc1ccc([N+](=O)[O-])cc1Br	x	-8%	-12%	u	-7.0%	-14%	20%	-6%
COC(=O)C1=C(C)n2nnnc2NC1c1cc2ccccc2o1 (stereo not drawn)	15%	-1%	4%	-3%	0.2%	-16%	2%	-26%
Cn1c(=O)n(C)c2cc(S(=O)(=O)N3CCCc4ccccc43)ccc21	16%	15%	-5%	-16%[14.3 µM]	-5.4%	13%	u	-3%
CCOc1ccccc1CNC(=O)CSc1n[nH]c(-c2ccccc2)n1	x	5%	x	u	1.3%	u	x	x
COc1cccc(NC(=O)CN(C)C(=O)c2ccc(OCc3ccccc3)c(OC)c2)c1	14%	x	0%	3%	x	17%	5%	x
COc1ccc(CCNCc2ccc(OCC(=O)N3CCCCC3)c(OC)c2)cc1OC	0%	x	0%	22%	x	-28%	9%[46.1 µM]	x
COc1ccccc1NC(=O)Cn1c(=O)n(CC2CCC(C(=O)NCCc3ccccc3)CC2)c(=O)c2ccccc21 (stereo not drawn)	x	7%	x	28%[46.1 µM]	-1.2%	10%	8%[46.1 µM]	x
Fc1cccc2ncnc(OCc3ccccc3)c12	4%	x	-2%	-3%	x	4%	5%[46.1 µM]	x
O=C(NCc1cccs1)[C@@H]1CSC2c3ccccc3C(=O)N21 (stereo partly drawn)	-13%	-27%	1%	3%	0.8%	-5%	-26%	14%
O=C(COc1ccccc1)N1N=C(c2cccnc2)CC1(O)C(F)(F)F (stereo not drawn)	x	12%	19%	u	-0.7%	-20%	u	-9%
CC1CCCC(C)N1C(=O)c1cc(-c2ccc(Cl)c(Cl)c2)on1 (stereo not drawn)	-14%	6%	4%	5%	-4.7%	45%[activator]	7%	-78%
CNC(=S)NNC(=O)c1noc(C)c1C(=O)N1CCN(C(c2ccccc2)c2ccccc2)CC1	10%	x	3%	11%[46.1 µM]	x	-11%	-16%[46.1 µM]	x
Cc1ccc(S(=O)(=O)NCc2csc(C)n2)cc1	7%	x	-1%	1%[46.1 µM]	x	2%	-13%[46.1 µM]	0%
CCOc1ccc(C(=O)Nc2ccccc2C#N)cc1[N+](=O)[O-]	0%	5%	-7%	7%	-3.8%	u	-23%	6%
COc1cccc(Cn2c(C)c(CNCc3ccccc3Cl)c(C(=O)O)c2C)c1	x	3%	x	0%[46.1 µM]	-2.9%	20%	-8%[46.1 µM]	x
O=C(Nc1ccccc1C(=O)N1CCOCC1)c1ccc(Br)cc1	10%	x	0%	1%	x	-13%	0%	14%
COc1cc(/C=C/C(=O)OC(C)C(=O)Nc2c(C)n(C)n(-c3ccccc3)c2=O)ccc1OCC#N (stereo not drawn)	-18%	x	-1%	u	x	-7%	1%[46.1 µM]	x
CCOCCCNC(=O)C(c1ccccc1)N(Cc1ccc2c(c1)OCO2)C(=O)CNC(C)=O (stereo not drawn)	3%	1%	-2%	-6%	7.3%	4%	1%&22%	-17%
CN(C)S(=O)(=O)Oc1ccc(Cl)cc1C(=O)Nc1ccc(F)cc1F	-8%	x	-1%	-6%[46.1 µM]	x	3%	-21%[46.1 µM]	11%
CCc1ccccc1NC(=O)c1onc(C)c1Cl	-2%	-2%	-6%	x	-3.3%	-12%	-7%	-49%
CCN(CC)C(=O)Cn1ncc2c1-c1ccccc1OC2	1%	-1%	-5%	1%	-0.3%	-1%	25%	5%
O=C(CNC(=O)c1ccc(Cl)cc1)Nc1ccc(S(=O)(=O)Nc2ncccn2)cc1	-12%	x	0%	-4%	x	-5%	-1%[46.1 µM]	4%
CCn1c(CN2CCCCC2)nc2cc(NC(=O)COc3ccccc3C(C)(C)C)ccc21	x	11%	x	-5%[46.1 µM]	5.4%	0%	u	x
COc1ccc(Cl)cc1NC(=O)C1CCCN(S(=O)(=O)c2cccc3nonc23)C1 (stereo not drawn)	5%	3%	11%	-16%	-2.6%	4%	u	6%
COc1ccc(C2/C(=C(/O)c3ccc(OC(C)C)cc3)C(=O)C(=O)N2CCCN2CCOCC2)cc1 (stereo not drawn)	-3%	u	5%	-8%&0%	-9.1%	-24%	-13%&3%	-5%
Cc1ccc(F)cc1NC(=O)N1CCCN(C(=O)OC(C)(C)C)CC1	8%	x	1%	u	x	0%	-29%	-4%
CCN1CCN(Cc2c(C)[nH]c3ccc(C(=O)OC)cc3c2=O)CC1	-4%	-11%	-3%	-17%	2.9%	-4%	u	9%
Cc1ccc(NC(=O)Nc2ncccc2C)cc1	u	-3%	0%	u	-2.2%	0%	0%	-30%
CSc1nc(=O)n(-c2ccccc2)c(C)c1C(C)=O	2%	-5%	1%	u	5.5%	52%[activator]	12%	2%
CCCCn1c(=O)c2oc3ccccc3c2n(Cc2cccc(F)c2)c1=O	x	7%	x	0%[46.1 µM]	-1.8%	-21%	x	x
C[C@@H]1C=C(C(=O)NCc2nc3ccccc3[nH]2)O[C@H](OCc2ccc(CO)cc2)C1	-23%	x	-2%	x	x	-24%	x	6%
O=C(Cc1ccc(Cl)cc1)Oc1cccc2cccnc12	u	-9%	-136%	2%	-4.3%	-4%	11%	u
CN(C)c1ccc(/C=N\NC(=O)c2csnn2)cc1	8%	-19%	-8%	u	-11%	-24%	14µM*	-24%
Cc1ccc(O)c(CO)n1	-2%	x	1%	17%	x	-10%	8%	6%
Cc1cc(Br)cc2c(C(=O)Nc3c(C)n(C)n(-c4ccccc4)c3=O)cc(-c3cccs3)nc12	-18%	-25%	-9%	u	-6.5%	x	6.5µM*	22%
O=C(CN1C(=O)NC2(CCCCCCC2)C1=O)N1CCc2ccccc2C1	28%	5%	-1%	0%	4.0%	12%	-2%	-3%
O=C(C(=O)N1CCCc2ccccc21)N1CCCc2ccccc21	2%	1%	2%	3%	3.1%	-1%	u	-14%
CC(=O)NNc1cc(=O)c2c(=O)n(C)c(=O)n(C)c2[nH]1	1%	7%	-15%	u	0.2%	-10%	5%	2%
COc1ccccc1N(Cc1cc(=O)[nH]c2ccccc12)C(=O)c1cccc([N+](=O)[O-])c1	-5%	x	-1%	x	x	-20%	x	0%
O=C(N/C=C\n1cnc2cc(C(F)(F)F)ccc21)c1ccc([N+](=O)[O-])cc1	-18%	x	2%	11%	x	-9%	u	3%
Cc1ncc(CO)c(/C=N/NC(=S)Nc2ccc(C(C)C)cc2)c1O	3%	x	0%	x	x	-9%	x	9%
CNC(=S)NCCc1c[nH]c2ccc(OC)cc12	3%	x	0%	u	x	-4%	3%	1%
COc1ccc(CNC(=O)CN2C(=O)c3ccccc3S2(=O)=O)cc1	15%	x	x	14%	x	-3%	7%[46.1 µM]	x
O=C(CN1CCN(Cc2ccc(Cl)cc2)CC1)N/N=C/c1ccccc1F	18%	x	0%	x	x	-28%	x	-6%

Continued:
SMILES	RE007 growth inh	Cruzain inh noDet	SARS PLpro yeast	Lassa entry inh	Cruzain inh Det	2A StopGo	Marburg entry inh	NS1 inh
COc1cc(C(=O)NCCC(=O)NCCc2ccc(Cl)cc2)cc(OC)c1OC	47%	-4%	2%	5%	-2.8%	-14%	u	-6%
Cc1nc(S/C(C(=O)O)=C2/C(=O)Nc3ccccc32)n[nH]1	14%	x	-6%	x	x	2.5µM*	x	-2%
CC1CCN(C(=O)c2scc3c2OCCO3)CC1	-15%	8%	-2%	0%	8.1%	2%	26%	-8%
COCCNC(=O)c1cn(CCOC)c(=O)c2c1c1ccccc1n2C	8%	x	2%	1%[46.1 µM]	x	0%	1%[46.1 µM]	1%
O=C(Cn1ccc2cc(S(=O)(=O)N3CCCC3)ccc21)NCc1ccc(Cl)cc1	x	7%	x	-1%[46.1 µM]	-3.6%	-17%	x	x
